High-throughput results: PubChem BioAssay, National Center for Advancing Translational Sciences (NCATS)
miR-21 FLuc – qHTS Assay for Modulators of miRNAs and/orActivators of miR-21 | HeLa miR-21 FLuc reporter, luciferase, 48 h | AID 2288, 2010 | Potency, µM (titrated, usually from 38.3 µM), for the others: at the highest dose reporter change, positive = more light | 340,000 tested, under 10 active; active = well fitted rising curve with a large enough effect; inconclusive = small, poorly fitted or top-dose-only effect; inactive = no such curve, though single readings can be large or run the other way;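 further: % of control where 0% means no effect; miR-21 action dims this reporter so a rising signal means less miR-21 action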
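HeLa miR-21-FLuc reporter line, endogenous miR-21; 2000 cells/well in DMEM/10% FBS; compound titration up to ~40uM final, 48 h, 37 degree Celsius; luciferase detection reagent, 15 min lysis, CCD luminescence.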
Rango dissoc inh – qHTS Assay for Inhibitors of RanGTP induced Rango (Ran-regulated importin-beta cargo) - Importin beta complex dissociation | Snurportin-1 (Homo sapiens) + GTP-binding nuclear protein Ran (Homo sapiens) + Importin … | Biochemical FRET Rango-importin beta, RanGTP-induced dissociation | Potency, µM (doses to about 46.1 µM), for inactives: at the top dose activity change, negative = inhibition | 340,000 compounds, 0.071% hits; active means falling FRET ratio curve, often poorly fitted, with flat reads before Ran was added; inconclusive means other falling curves, or compound fluorescence or quenching; inactive means flat or rising ratio curve;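 further: potency means the concentration at half of the fitted maximal effect; % of control where 0% means no effect; nearly all actives have a fitted effect of over 45% in size; -100% = wells without RanGTP and RCC1; the record marks most hits as doubtful in a second field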
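Compounds preincubate 5 min with complex of recombinant Rango and importin beta in PBS with 1 mM DTT. Ran (0.6 uM) loaded with 2 mM GTP plus 0.2 uM RCC1 starts dissociation; FRET is recorded 45 min later.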
GLA inh pH 4.5 – qHTS Assay for Inhibitors of Human alpha-Galactosidase at pH 4.5; Alpha-galactosidase A (Homo sapiens), P06280; purified enzyme, 4-MU-alpha-Gal fluorescence, pH 4.5; activity change, negative = inhibition, % at 105 µM; 230,000 tested, under 10 active; AID 1467, 2008; inconclusive = small, poorly fitted or top-dose-only inhibition, or a rising curve; inactive = flat fitted curve, though single readings scatter; no compound was filed as active;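 further: 0% = full activity with enzyme and -100% = basal without enzyme; dose as in the result columns while the protocol names 77 µM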
Target sequence (P06280 whole entry, looked up): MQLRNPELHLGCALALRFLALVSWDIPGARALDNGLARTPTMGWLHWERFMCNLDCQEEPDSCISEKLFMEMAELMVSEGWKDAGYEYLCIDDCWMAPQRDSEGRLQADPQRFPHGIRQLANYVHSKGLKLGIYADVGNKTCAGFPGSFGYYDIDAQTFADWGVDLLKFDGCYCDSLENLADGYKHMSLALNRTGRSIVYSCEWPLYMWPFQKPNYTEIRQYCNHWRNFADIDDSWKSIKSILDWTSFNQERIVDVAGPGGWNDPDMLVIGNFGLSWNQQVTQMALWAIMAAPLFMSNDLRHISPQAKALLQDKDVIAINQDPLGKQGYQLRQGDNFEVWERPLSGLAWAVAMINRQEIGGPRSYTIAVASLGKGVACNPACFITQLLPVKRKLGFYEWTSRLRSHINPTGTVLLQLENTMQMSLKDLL
Rango-impB inh – qHTS Assay for Inhibitors of Rango (Ran-regulated importin-beta cargo) - Importin beta complex formation; Importin subunit beta-1 (Homo sapiens), Q14974; Rango CFP/YFP FRET sensor + importin beta, 45 min; Potency, µM (series often up to 92.2 µM), inactives show at the highest dose inhibition of complex formation; 340,000 compounds, 0.031% hits; AID 540263, 2011; active = rising FRET ratio curve, often small or poorly fitted; inconclusive = mostly compound fluorescence or quenching in the first reads; inactive = flat curves in all reads;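 further: potency means the concentration at half of the fitted maximal effect; 0% = DMSO wells and 100% = buffer wells lacking importin beta; nearly all actives have a fitted effect of over 15% in size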
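Inhibition scored from the CFP 486 nm/YFP 530 nm FRET ratio 45 min after adding 0.125 microM importin beta to 50 nM Rango biosensor preincubated 5 min with compound (room temperature, PBS with DTT, Tween-20, BSA). No-importin wells as positive control.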
Starred values were filed as active, the others as inactive; ? = inconclusive; . = not tested or not shown. This is a subset (hit frequency here may not be typical).

The line under a structure holds: miR-21 FLuc | Rango dissoc inh | GLA inh pH 4.5 | Rango-impB inh
> CN1C(=O)c2c(sc3c2CCCC3)NC1c1ccccc1O (stereo unspecified)
    -32% | . | -10 | .
> CSc1ccc(C2N=C(c3ccccc3)NO2)cc1 (stereo unspecified)
    -27% | 5% | . | ?
> NC(N)=Nc1nc2cc([N+](=O)[O-])ccc2o1
    -25% | 6% | -5 | 3.4%
> CCN1/C(=C/C(=S)Nc2ccccc2)Sc2ccccc21
    -47% | -20% | -10 | 2.5%
> CN(C)S(=O)(=O)c1cc(NC(=O)CN2CCc3ccccc32)ccc1Cl
    -18% | 2% | 6 | -1.1%
> O=C(NCc1ccccn1)c1ccc(Cl)cc1Cl
    -35% | 2% | -2 | 2.3%
> Cc1cccc(C)c1NC(=O)C(=O)NCCCN1CCOCC1
    -3% | 2% | -3 | -1.7%
> COc1ccccc1CCNC(=O)c1cc(-c2ccccn2)nc2ccc(Br)cc12
    0% | . | 8 | .
> O=C1C2CCCN2C(=S)N1Cc1ccccc1 (stereo unspecified)
    4% | 6% | 1 | 2.0%
> O=C(O)C(=O)Nc1ccc(NC(=O)C(c2ccccc2)c2ccccc2)cc1
    1% | 5% | . | 2.6%
> O=C(Nc1ccccc1Br)c1cc[n+]([O-])cc1
    -1% | 2% | . | -1.1%
> CCn1c(COc2ccccc2)nnc1SCC(=O)Nc1cc(OC)ccc1OC
    11% | -5% | -14 | -5.6%
> CC(=O)N1CCN(C(=O)CCc2c[nH]c3ccccc23)CC1
    -1% | 9% | 3 | -1.1%
> CC(C)(C)OC(=O)N1CCOCCOCCN(C(=O)OC(C)(C)C)CCOCC1
    1% | 3% | -3 | 0.4%
> COC(=O)c1ccc(C2/C(=C(/O)c3ccc4c(c3)CC(C)O4)C(=O)C(=O)N2Cc2ccncc2)cc1 (stereo unspecified)
    3% | -3% | . | 0.3%

Single records (already shown). Order of values: miR-21 FLuc | Rango dissoc inh | GLA inh pH 4.5 | Rango-impB inh
CCn1c(COc2ccccc2)nnc1SCC(=O)Nc1cc(OC)ccc1OC reads 11% | -5% | -14 | -5.6%
CC(C)(C)OC(=O)N1CCOCCOCCN(C(=O)OC(C)(C)C)CCOCC1 reads 1% | 3% | -3 | 0.4%
O=C(NCc1ccccn1)c1ccc(Cl)cc1Cl reads -35% | 2% | -2 | 2.3%
CN1C(=O)c2c(sc3c2CCCC3)NC1c1ccccc1O (stereo unspecified) reads -32% | . | -10 | .
CCN1/C(=C/C(=S)Nc2ccccc2)Sc2ccccc21 reads -47% | -20% | -10 | 2.5%

(list continues)
The line under a structure holds: miR-21 FLuc | Rango dissoc inh | GLA inh pH 4.5 | Rango-impB inh
> Cn1c(SCC(=O)OCc2ccccc2)nnc1-c1ccco1
    0% | -2% | 0 | -1.5%
> O=C1N=C(N2CCN(c3ccccc3)CC2)S/C1=C/c1ccco1
    -26% | -10% | -11 | 5.0%
> O=C(NCC(=O)N(Cc1ccco1)C(C(=O)NC1CCCCC1)c1cccnc1)c1cccs1 (stereo unspecified)
    -5% | -7% | -6 | -0.1%
> Cc1cccc(C(=O)NNC(=O)c2c(-c3ccccc3Cl)noc2C)c1O
    5% | 1% | . | 2.3%
> CCn1ccc(C(=O)N2CCN(c3ncccn3)CC2)n1
    0% | -8% | . | -1.9%
> Nc1ccc(C(=O)Nc2cccc3ncccc23)cc1
    0% | -6% | . | 2.8%
> ONC=Nc1cccc2nonc12
    -8% | -22% | 2 | ?
> CCCN(N=Nc1cccc([N+](=O)[O-])c1)c1cccc([N+](=O)[O-])c1
    0% | -16% | 0 | -0.2%
> O=C(N/C(=C/c1ccccc1F)C(=O)N1CCCCC1)c1ccccc1
    -2% | -5% | . | 2.1%
> CCn1c(SCC(=O)Nc2ccc(OC)c(OC)c2)nnc1-c1c[nH]c2ccccc12
    5% | -7% | 1 | 0.5%
> CCCOc1ccc(Cc2nc(N)nc(N)n2)cc1
    -12% | -3% | -9 | 2.4%
> O=S(=O)([N-]c1nc2ccccc2nc1-n1cc[n+](Cc2ccccc2)c1)c1ccccc1
    -1% | ? | 1 | ?
> COc1cc(CNc2ncc(-c3ccc(Cl)cc3)n2C)cc(OC)c1OC
    20% | 0% | . | 2.8%
> CSc1cccc(NC(=O)CCC(=O)O)c1
    -1% | 6% | -13 | -4.0%
> CCn1c(CNC(=O)c2ccc(OC)cc2)nnc1SC
    -1% | 7% | -3 | -3.3%

Arranged by value in Rango-impB inh (low to high): six from the list above
Compound	miR-21 FLuc	Rango dissoc inh	GLA inh pH 4.5	Rango-impB inh
CCn1ccc(C(=O)N2CCN(c3ncccn3)CC2)n1	0%	-8%	.	-1.9%
Cn1c(SCC(=O)OCc2ccccc2)nnc1-c1ccco1	0%	-2%	0	-1.5%
CCn1c(SCC(=O)Nc2ccc(OC)c(OC)c2)nnc1-c1c[nH]c2ccccc12	5%	-7%	1	0.5%
O=C(N/C(=C/c1ccccc1F)C(=O)N1CCCCC1)c1ccccc1	-2%	-5%	.	2.1%
CCCOc1ccc(Cc2nc(N)nc(N)n2)cc1	-12%	-3%	-9	2.4%
O=C1N=C(N2CCN(c3ccccc3)CC2)S/C1=C/c1ccco1	-26%	-10%	-11	5.0%

The listing continues:
The line under a structure holds: miR-21 FLuc | Rango dissoc inh | GLA inh pH 4.5 | Rango-impB inh
> O=C(Nc1ccon1)C(Sc1ccccc1)c1ccccc1 (stereo unspecified)
    1% | 4% | -6 | -0.3%
> C#CCOCCOCCOCCNc1nc(N2CCN(C(=O)C(Cc3ccc(O)cc3)n3cc(C(N)CC(C)C)nn3)CC2)nc(N2CCN(C(=O)C(Cc3ccc(O)cc3)n3cc(C(N)C(C)CC)nn3)CC2)n1 (stereo unspecified)
    1% | ? | 0 | -0.8%
> Cc1ccc2c(C)c(C(=O)Nc3ccc(S(N)(=O)=O)cc3)oc2c1C
    -2% | 6% | 7 | 2.0%
> COCCCNC(=S)NNC(=O)Cn1nc(C)c(Br)c1C
    -3% | 2% | 1 | 0.2%
> CCN(C(=O)COC(=O)c1ccc2[nH]c3c(c2c1)CCCC3)C1CCS(=O)(=O)C1 (stereo unspecified)
    1% | -13% | 5 | ?
> O=C(COC(=O)c1nc(Cl)ccc1Cl)Nc1ncc(Cl)cc1Cl
    . | 5% | . | -1.4%
> CNC(=O)COC(=O)c1cc(NC(=O)c2ccco2)c(OC)c(OC)c1
    -5% | -4% | 5 | 0.1%
> O=C(O)CSc1ncnc2nc[nH]c12
    1% | 0% | -7 | -1.1%
> Brc1ccccc1OCCCCn1cnc2ccccc21
    -28% | -12% | -1 | -2.0%
> O=C(c1cc(COc2ccc3ncccc3c2)on1)N1CCCC1
    0% | -5% | . | 1.8%
> COc1ccc(OCCCON2C(=O)c3ccccc3C2=O)cc1
    -1% | 3% | 3 | 1.0%
> COc1cc(OC)c(NC(=O)C2CCCN2C(=O)OCc2ccccc2)cc1Cl (stereo unspecified)
    -3% | -4% | . | -1.8%
> CCCN(CCC)CCCNC(=S)Nc1ccc2nc(N3CCN(C)CC3)cc(C)c2c1
    -9% | -5% | 5 | 3.5%
> CSc1ccc(/C=N/N2CCN(C)CC2)cc1
    -51% | 23% | 1 | 0.6%
> O=C(c1cccc(C(F)(F)F)c1)C1CCCN(C(=O)C2CCOCC2)C1 (stereo unspecified)
    -1% | 17% | . | 2.3%

Next compounds follow:
Abbreviations: A = miR-21 FLuc; B = Rango dissoc inh; C = GLA inh pH 4.5; D = Rango-impB inh
> COc1ccccc1NS(=O)(=O)c1cc(C(=O)Nc2ccc(S(=O)(=O)Nc3onc(C)c3C)cc2)ccc1C
  A: .	B: 15%	C: .	D: 0.3%
> COc1ccc(-n2cnc(N)c2C(=O)c2cccc([N+](=O)[O-])c2)cc1
  A: 27%	B: 13%	C: -9	D: -0.4%
> COc1ccc(C(=O)Nc2ccc(C3=NNC(=O)CC3C)cc2NC(=O)c2ccc(OC)cc2)cc1 (stereo unspecified)
  A: 5%	B: -12%	C: -5	D: 9.1%
> O=C(Nc1cccc2c1CCCC2)c1ccccc1Br
  A: -2%	B: -12%	C: .	D: -1.7%
> Cc1c(Br)c([N+](=O)[O-])nn1CC(=O)NC1CCCCCC1
  A: -7%	B: 1%	C: .	D: -0.2%
> COCn1c(-c2ccc(OC)cc2)nc2ccccc21
  A: -68%	B: 9%	C: 6	D: 2.4%
> CN(C#N)c1nc(Cl)nc(Nc2cccc(Cl)c2)n1
  A: 0%	B: 1%	C: 4	D: -3.0%
> COc1ccc(CNC(=O)Nc2cccs2)cc1OC
  A: -9%	B: ?	C: 2	D: ?
> N/C(=N\OC(=O)CCC1CCCCC1)c1cccc([N+](=O)[O-])c1
  A: -20%	B: 0%	C: 0	D: -3.4%
> CN(C)c1ccc(/C=N/NC(=O)c2ccco2)cc1
  A: -42%	B: -26%	C: -6	D: ?
> COc1ccc(S(=O)(=O)Nc2ccc3c(c2)OCCO3)cc1OC
  A: -11%	B: 1%	C: .	D: -2.1%
> COCCCNCC(O)COc1ccccc1F (stereo unspecified)
  A: -2%	B: -12%	C: 3	D: -0.1%
> COc1ccc(NC(=O)CN(Cc2ccco2)Cc2ccco2)cc1S(=O)(=O)N1CCCCC1
  A: .	B: -9%	C: .	D: -1.7%
> CN1CCN(NC(=O)c2ccc(Cl)c(S(=O)(=O)Nc3ccc(Cl)cc3)c2)CC1
  A: -1%	B: 17%	C: 3	D: 6.0%
> COc1cccc(CNc2ncnc3cc(OC)c(OC)cc23)c1
  A: -1%	B: -1%	C: -3	D: -0.2%
> CC1(C)COC(/C=C/c2ccc([N+](=O)[O-])cc2)=N1
  A: 24%	B: -4%	C: 5	D: ?
> O=C(NN1CCOCC1)c1cc(-c2ccccc2)nc2ccccc12
  A: -2%	B: 18%	C: -7	D: 1.2%
> Cc1c(C(=O)OCC(=O)Nc2ccc(N3CCOCC3)cc2)oc2ccccc12
  A: .	B: -10%	C: .	D: 2.3%
> O=C(N/N=C/c1ccncc1)c1ccc(NC(=O)c2cccc(Cl)c2)cc1
  A: -1%	B: -1%	C: -4	D: 0.2%
> COCCn1c(CN2CCN(c3ccccc3)CC2)nc2c1c(=O)n(C)c(=O)n2C
  A: .	B: 8%	C: .	D: 0.5%
> CC(=O)Nc1ccc(-c2cn3cc(C)ccc3n2)cc1
  A: -17%	B: 13%	C: 7	D: -0.6%
> COc1ccc(S(=O)(=O)N2CCC(C(=O)NCc3ccncc3)CC2)cc1C
  A: -1%	B: 21%	C: .	D: 1.4%
> CCOc1cc(C2C(C(C)=O)=C(C)Nc3ncnn32)ccc1O (stereo unspecified)
  A: 0%	B: 12%	C: .	D: 0.5%
> Cc1cccc(C)c1NC(=O)NC1(C(=O)NCc2ccncc2)CCCCC1
  A: -5%	B: 0%	C: .	D: -0.4%
> NNC(=O)Nc1cccc(C(F)(F)F)c1
  A: -1%	B: -3%	C: 1	D: -3.2%
> O=C(Cn1c(=O)n(CC(=O)NCc2ccccc2)c2ccccc21)NCc1ccccc1
  A: 1%	B: 5%	C: 0	D: 3.7%
> Cc1cccc2[nH]c3c(N4CCN(C(=O)c5ccco5)CC4)ncnc3c12
  A: 4%	B: -13%	C: 3	D: -0.7%
> CCC(C)(C)NC(=O)C(c1ccncc1)N(Cc1ccc(C)cc1)C(=O)c1csnn1 (stereo unspecified)
  A: -16%	B: -13%	C: -5	D: -2.3%
> O=C(/C=C/c1ccco1)Nc1nnc(-c2ccco2)s1
  A: -6%	B: 1%	C: -2	D: 1.7%
> Cc1nc2ccc(NC(=O)CCS(=O)(=O)c3ccccc3)cc2s1
  A: -43%	B: -13%	C: 6	D: -0.3%
